H5N1 CPE: antiviral screen in MDCK cells, H5N1 avian flu. cytopathic effect, luminescence, 72 h; active compounds read high; no value below 0 was filed and about half of the inactive calls have no number; reference of the scale not given here. inhibition, % at 50 µM. 96,000 compounds, 0.07% hits; in the data active = inhibition above about 25%
An asterisk follows results filed as active; i = inactive. Some of the compounds tested. The share of hits here may be higher or lower than overall.

SMILES	H5N1 CPE
COc1ccc(-c2n[nH]c(=S)n2Cc2ccco2)cc1	i
CCC(=O)Nc1cccc(NC(=S)NC(=O)Cc2ccccc2)c1	i
CCC(C)[C@H](NC(=O)Nc1ccc(Oc2ccccc2)cc1)C(=O)O (stereo partly specified)	i
O=C(Nc1ccc2oc(-c3ccccc3)nc2c1)c1ccncc1	1.6
O=C(CSc1nnc(CNc2ccccc2)o1)N1CCCc2ccccc21	1.3
CCOC(=O)C1CCCN(C(=O)C2CCCN(S(=O)(=O)c3ccc4c(c3)oc(=O)n4C)C2)C1 (stereo unspecified)	1.6
COc1cccc(OC)c1C(=O)NCCN1CCN(C(=O)c2c(OC)cccc2OC)CC1	3.2
CCOC(=O)c1cnn2c(C(F)(F)F)cc(-c3cn(C)nc3C)nc12	0.7
CSc1ccc(/C=C/C(=O)c2ccc(NC(=O)Cc3ccccc3)cc2)cc1	1.0
O=C(NCc1ccc(Cl)cc1Cl)C(=O)N1CCCCC1	i
Cc1ccc2[nH]c3c(=O)n(CCN4CCOCC4)cnc3c2c1	i
CCc1c(-c2ccccc2)nc2nc(C)c(C)nn12	2.4
Cc1cccc(Cc2cnc(NC(=O)CN3C(=O)/C(=C/c4ccccc4)SC3=S)s2)c1	i
CCC(C)C(NC(=O)C1CCC(C)CC1)C(=O)NC(CCSC)C(=O)OC (stereo unspecified)	i
O=C(N/N=C/c1ccccc1Cl)c1ccc(F)cc1	1.0
CC(=O)c1ccc(OCCCC(=O)OCc2nnc(-c3ccc(Cl)cc3)o2)cc1	i
Cc1sc2c(c1C)CN(C1CC(C)(C)NC(C)(C)C1)CN2C(=O)c1ccco1	0.6
O=C(NC1CCCCC1)/C(=N\O)c1ccccn1	1.1
CCOC(=O)c1c(C)nc2sc3c(=O)n(-c4ccc(C)cc4)cnc3c2c1-c1ccc(OC)cc1	i
CCCCn1c(NC(C)=O)c(C#N)c2nc3ccccc3nc21	1.9
CCCCSc1nc(C)[nH]c1[N+](=O)[O-]	1.3
CC1CCCCN1CCNS(=O)(=O)c1ccc2c(c1)oc(=O)n2C (stereo unspecified)	i
C#CC[N+]1(CC#Cc2ccccc2)CCOCC1	i
CCC(Sc1ccc2nnc(-c3ccc(F)cc3)n2n1)C(=O)OC (stereo unspecified)	1.7
C(=N\n1cnnc1)/c1cn(-c2cccs2)nc1-c1ccccc1	i
Cc1[nH]n(-c2ccccc2)c(=O)c1C(C[N+](=O)[O-])c1ccc(Br)cc1 (stereo unspecified)	i
COc1ccc(Cl)cc1NC(=O)c1oc(C)nc1C	1.4
CCOC(=O)C1CCCN(CC(O)COc2ccccc2C(C)=O)C1 (stereo unspecified)	i
CCCCP(=O)(CCCC)Cc1ccccc1O	i
CC1CN=C(N(C(=O)Nc2ccccc2)c2ccc(F)cc2)S1 (stereo unspecified)	0.1

Next section.
SMILES	H5N1 CPE
OCCN(Cc1ccccc1)Cc1cccc(C(F)(F)F)c1	i
Cc1ccc(C(=O)C2CCN(CC(=O)NC3CCCCC3)CC2)cc1	i
Clc1ccc(-n2ncc3c(NCC4CCCO4)ncnc32)cc1 (stereo unspecified)	0.2
CCOC(=O)c1cc2sc(C)cc2n1CC(=O)N(CC)CC	0.5
Cc1cc(Br)ccc1NC(=O)CN1C(=O)CCC1=O	i
Cn1c(=O)c2c(SCC(=O)Nc3ccc4c(c3)OCCO4)nc(CC(C)(C)C)nc2n(C)c1=O	i
Cc1cc(C(=O)Nc2nnc(C3CCCCC3)s2)cs1	i
COc1cccc(NC(=O)c2ccccc2-c2nc(-c3cccc(C)c3)no2)c1	0.4
Cc1noc(/C=C/N(C)C)c1S(=O)(=O)N1CCCC(C(=O)NCc2ccc(F)cc2)C1 (stereo unspecified)	i
Cc1ccc(NC(=O)C(C)N2CCOCC2)c(C(=O)c2ccccc2)c1 (stereo unspecified)	0.7
O=C1c2[nH]nc(-c3ccccc3O)c2C(c2cccc(O)c2)N1Cc1ccco1 (stereo unspecified)	0.9
COc1cccc2cc(-c3nnc(SCC(=O)NCc4ccccc4)n3C)oc12	1.4
Cc1onc(-c2c(Cl)cccc2Cl)c1C(=O)NCCN1CCOCC1	1.1
Cc1nc2sc(C)c(C)c2c(=O)o1	i
CC1(C)Cc2c(C#N)c(N3CCOCC3)nc(Cc3ccccc3)c2CO1	3.5
O=C(CN(Cc1ccccc1)C(=O)CCC(=O)Nc1nccs1)NCc1ccco1	0.1
O=C(C1CC1)N1CCC(C(O)(c2ccccc2)c2ccccc2)CC1	1.9
O=C(Nc1ccc(F)cc1)c1cccnc1N1CCOCC1	i
Cc1nn(CCC#N)c(NC(=O)c2ccc(Cl)cc2Cl)c1P(=O)(Nc1ccc([N+](=O)[O-])cc1)N1CCOCC1 (stereo unspecified)	0.5
Cc1nn(C)c(C)c1-c1c(C#N)c(N)nc2c1CCCCCC2	i
Cn1c(=NC(=O)CSCC(=O)N2CCCC2)sc2ccccc21	i
COc1cccc(C2N(c3ccccn3)C(=O)C3CCCN32)c1OC (stereo unspecified)	i
O=C(CSc1nnc(Cc2ccccc2)n1Cc1ccco1)NC1CCCC1	4.0
CC(C)Sc1nc2c(c(=O)[nH]c(=O)n2C)n1CCc1ccccc1	0.4
COc1ccc(/C=N/NC(=O)c2nc(-c3ccccc3)cc(-c3ccccc3)n2)cc1OC	i
COCCCNC(=O)C1CCN(C(=O)Nc2ccc(Cl)cc2)CC1	1.2
O=C(OCc1ccc(Cl)c(Cl)c1)c1ccccn1	i
Cc1ccc(N(CC(=O)NCc2cccs2)S(=O)(=O)c2cccs2)cc1	i
CN1CCN(c2cc(N3CCCC3)c([N+](=O)[O-])cc2F)CC1	i
COc1ccc(NC2c3ccccc3C(=O)N2Cc2ccco2)cc1OC (stereo unspecified)	i

Later entries
SMILES	H5N1 CPE
CCOc1ccccc1-c1cc(-c2ccccc2)nc2c1c(=O)n(C)c(=O)n2C	1.9
CCCCCNc1nc2ccccc2nc1NS(=O)(=O)c1cccs1	0.8
Cc1ccc(/C=N/n2cnnc2)s1	i
CC(=O)c1cccc(NC(=S)NC(=O)C(C)C)c1	i
Cc1ccc(C)c(Cc2c(C)nc3c(C(=O)NCc4ccc5c(c4)OCO5)cnn3c2C)c1	6.4
COc1ccc(Cl)cc1NC(=O)CN1C(=O)CSC1=O	i
CCOC(=O)N1CCN(C(=O)CSc2nnc(COc3ccccc3)o2)CC1	1.1
Cc1ccccc1OC(=O)CCC(=O)OCCCC(F)(F)C(F)(F)F	i
Cc1c2cnn(CC(=O)O)c(=O)c2c(C)n1Cc1ccccc1	0.1
O=P(c1ccccc1)(c1ccccc1)C1CCCO1 (stereo unspecified)	2.4
COc1cccc(-c2csc(N3CCN(C(=S)Nc4ccccc4)CC3)n2)c1	i
Cc1ccc(-c2cc(C(=O)N3CCOCC3)c3ccccc3n2)cc1	0.3
Cc1c(/N=C/c2ccco2)n(Cc2ccccc2)c2ccccc12	i
O=C(Nc1ccccc1Cl)N1CCN(c2ccc3nnc(-c4ccccc4)n3n2)CC1	1.2
Cc1ccc(C)c(NC(=O)CSc2nnc(CCCCCNC(=O)OC(C)(C)C)o2)c1	2.3
CCCC(=O)NCCCc1nc2ccccc2n1C(C)C	0.3
Cc1ccc(CN2C(=O)CCC2C(=O)N2CCN(c3ccc(F)cc3)CC2)cc1 (stereo unspecified)	0.7
Cc1cccn2c(=O)c(C=Nc3ccc(Cl)cc3)c(NCCO)nc12	i
Cc1cc(C)cc(NC(=O)CN2CCN(c3ncccn3)CC2)c1	i
CC1(C)CC(=O)C(C=NCCN2CCN(C(=O)NC34CC5CC(CC(C5)C3)C4)CC2)=C(O)C1	i
O=C(NC1CCCCCC1)c1ccc2c(=O)n3c(nc2c1)CCCCC3	i
COCc1cc(C)n(CC(=O)Nc2ccc(Cl)cc2Cl)c(=O)c1C#N	i
Oc1csc(Cc2nc(-c3ccc(-c4ccccc4)cc3)cs2)n1	1.8
O=C(CN1CCN(C(=O)c2ccccc2)CC1)Nc1ccc(Br)cn1	2.9
COc1cc(C)nc(OCCNS(=O)(=O)c2cc(C)ccc2C)n1	0.5
COc1ccc(/C=N/NC(=O)c2ccoc2C)cc1COc1c(C)cccc1C	7.2
Cc1cc(-c2nnc(SCc3ccccn3)o2)no1	0.3
O=c1cc(N2CCc3ccccc32)[nH]c(=O)n1-c1ccc(Br)cc1	1.3
COc1cccc(/C=N/NC(=O)c2cc(-c3cccn3C)n[nH]2)c1	1.6
CS(=O)(=O)N1CCN(Cc2ccccc2C(F)(F)F)CC1	i

A draw from above in order of SMILES length, rising.
SMILES	H5N1 CPE
O=C(OCc1ccc(Cl)c(Cl)c1)c1ccccn1	i
Oc1csc(Cc2nc(-c3ccc(-c4ccccc4)cc3)cs2)n1	1.8
Cc1ccc(NC(=O)C(C)N2CCOCC2)c(C(=O)c2ccccc2)c1 (stereo unspecified)	0.7

(further entries)
SMILES	H5N1 CPE
COc1ccc(NC(=O)COC(=O)c2ccc(Br)o2)cc1OC	i
Clc1ccc(CSc2nnc(-c3sccc3-n3cccc3)o2)cc1	1.0
CCc1nccn1S(=O)(=O)c1ccc(OC)c(OC)c1	i
CCOc1ccc2nc(NC(=O)CS(=O)(=O)c3ccccc3)sc2c1	0.9
O=C1c2ccc3c4c(ccc(c24)C(=O)N1Cc1cccnc1)C(=O)N(Cc1cccnc1)C3=O	i
Cc1ccc(NC2CC(=O)N(Cc3ccccc3)C2=O)cc1 (stereo unspecified)	i
CCOC(=O)c1c(C)[nH]c(C(=O)C(C)OC(=O)c2oc3ccccc3c2COC)c1C (stereo unspecified)	0.2
Cc1[nH]c2ccccc2c1Cc1nnc(SCC(=O)NCc2ccco2)o1	0.3
COc1cccc(CNC(=O)C2CCCN(c3nn4c(=O)cc(C)nc4s3)C2)c1OC (stereo unspecified)	i
CCCCCCC(=O)N(O)C1CC(=O)N(c2ccc(Br)cc2)C1=O (stereo unspecified)	i
COCCCNC(=O)CCn1c(=O)c2ccccc2n(CC(=O)Nc2ccccc2C)c1=O	i
C#CCn1c(S(=O)(=O)Cc2ccc(OC)cc2)nc(-c2ccccc2)c1-c1ccccc1	i
Cc1cccc(C)c1NC(=O)Cn1c(=O)n(CCC(=O)NCc2ccco2)c(=O)c2sccc21	i
Cc1noc(C)c1CSc1ncnc2ccccc12	i
Cc1cc2ccccc2c(=O)n1CC(=O)NCC(=O)N(C)C1CCCCC1	i
Cc1ccc2nc(Cl)c(CN(C(=O)c3cnccn3)C3CCCCC3)cc2c1	2.2
Cc1oc(/N=C/c2ccc3c(c2)OCO3)c(C#N)c1C	0.6
O=C(O)CC(NC(=O)OCc1ccccc1)c1ccc(Br)cc1 (stereo unspecified)	i
COc1ccc(C(=O)Cn2nnc(-c3cccs3)n2)cc1	1.4
CC(=O)c1ccc(NC(=O)CSCC(=O)Nc2ccc3ccccc3c2)cc1	1.4
COC(=O)c1cccnc1-n1c(=O)c2cccnc2n(Cc2cccc(OC)c2)c1=O	1.5
Cc1cc(NC(=O)CCN2C(=O)C3C4CCC(C4)C3C2=O)c(C)cc1Br (stereo unspecified)	i
CN1CCOc2cc(S(=O)(=O)Nc3ccc(F)cc3)ccc21	2.0
COc1cccc(NC(=O)CSc2nc3ccccc3c(=O)n2CCCC(=O)N2CCCC2)c1	0.8
COCCCNC(=O)CCC(=O)Nc1ccc2nc(N3CCOCC3)cc(C)c2c1	0.2
Nc1nc(-c2cccs2)cs1	i
Cc1cc(Cl)c(S(=O)(=O)NC(C(=O)O)c2ccccc2)cc1OCC(N)=O (stereo unspecified)	0.9
Cc1ccc(-c2nn(C)c(=O)c3ccccc23)cc1CNC(=O)Cn1nc(-c2ccccc2)c2ccccc2c1=O	i
CCn1c(N2CCN(CC(=O)c3c[nH]c4ccccc34)CC2)nc2c1c(=O)[nH]c(=O)n2C	0.9
COc1cc(Nc2nc(-c3ccccc3)c3cc(C)ccc3n2)cc(OC)c1OC	i

Gathered by group, those above with a cyano group
SMILES	H5N1 CPE
CCCCn1c(NC(C)=O)c(C#N)c2nc3ccccc3nc21	1.9
CC1(C)Cc2c(C#N)c(N3CCOCC3)nc(Cc3ccccc3)c2CO1	3.5
Cc1nn(CCC#N)c(NC(=O)c2ccc(Cl)cc2Cl)c1P(=O)(Nc1ccc([N+](=O)[O-])cc1)N1CCOCC1 (stereo unspecified)	0.5
Cc1nn(C)c(C)c1-c1c(C#N)c(N)nc2c1CCCCCC2	i
COCc1cc(C)n(CC(=O)Nc2ccc(Cl)cc2Cl)c(=O)c1C#N	i
Cc1oc(/N=C/c2ccc3c(c2)OCO3)c(C#N)c1C	0.6

Continuation.
SMILES	H5N1 CPE
COc1cc2nc(=S)n3[nH]c(CCn4nc(C)cc4C)nc3c2cc1OC	0.6
CCSc1nnc(Nc2ccc(C)cc2)s1	i
Cc1cccc(N2CCN(C(=O)c3cccn4c(=O)c5c(C)c(C)sc5nc34)CC2)c1C	3.9
Cc1cccc2sc(NC(=O)CSCc3ccccc3)nc12	i
O=C(CN1CCOCC1)Nc1ncccn1	i
COc1ccc(Cl)cc1NC(=O)CSc1nnc(Cc2cccn2C)n1-c1ccc(F)cc1	4.4
CC1CCCN(C(=O)C(Cc2ccccc2)n2cccc2)C1 (stereo unspecified)	1.8
COc1ccc(S(=O)(=O)Nc2ccc(Cl)cn2)c(C)c1C	0.1
Cc1ccc(C)c(N2CCN(C(=O)c3ccc(NS(=O)(=O)c4c(C)noc4C)cc3)CC2)c1	i
CCOC(=O)C1CCN(c2nc(C)nc3c2oc2ccccc23)CC1	0.8
CCOC(=O)c1c(NC(=O)CSc2nc3cccnc3n2C)sc(C(C)=O)c1C	i
CCOc1cc(S(=O)(=O)NCc2ccc3c(c2)OCO3)ccc1F	0.2
Cc1ccc(C(=O)NC=C(Cl)Cl)cc1	i

Assay outcomes from PubChem BioAssay.
